Screening results: PubChem, several laboratories
WNV protease inh: blocks West Nile virus NS2B-NS3 protease activity; WNV NS2B-NS3 protease, fluorogenic substrate Ex360/Em465; stronger effect = lower value; P06935; z-score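 (tested at a level between 10 and 100 µM)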; actives 0.18% (n = 65,000);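 active = z-score at -3 or under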;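 also: score is relative to mean and spread of the compound wells of a plate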
Target sequence (P06935 1371-1501 limits assumed): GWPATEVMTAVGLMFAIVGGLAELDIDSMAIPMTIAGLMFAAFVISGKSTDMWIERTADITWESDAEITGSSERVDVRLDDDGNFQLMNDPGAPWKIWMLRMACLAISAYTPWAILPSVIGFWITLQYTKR
Target sequence (P06935 1502-1679 limits assumed): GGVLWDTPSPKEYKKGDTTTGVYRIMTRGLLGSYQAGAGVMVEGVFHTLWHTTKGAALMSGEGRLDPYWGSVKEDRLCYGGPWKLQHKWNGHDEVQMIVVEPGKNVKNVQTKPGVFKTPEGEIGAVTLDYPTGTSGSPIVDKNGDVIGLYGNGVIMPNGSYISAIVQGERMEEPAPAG
MT1-MMP promoter: MT1-MMP gene expression reporter suppression – cell-based, luciferase reporter, luminescence (AID 618). MT1-MMP promoter luciferase reporter cells, luminescence. calls from a first round at 10 µM; hits with a dose series show EC50 in µM. actives 0.62% (n = 87,000);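 active = over half of the reporter light lost at 10 µM or EC50 under 50 µM; inactive = the rest and hits that failed the dose series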;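 also: actives suppress MT1-MMP promoter-driven transcription so potencies describe inhibitors; HT1080 fibrosarcoma cells; overnight exposure; toxic or luciferase-blocking compounds were not removed from the actives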
Hsc70: small molecules displacing fluorescent ligand from Hsc70 – biochemical, fluorescence polarization, primary screen (AID 568); one-dose displacement, % at 20 µM; IC50 in µM for titrated hits; Hsc70 fluorescence polarization, probe displacement; higher % means a stronger effect; strong numbers were not always called active; 83,000 tested, under 10 active;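 active = displacement above 50% without optical interference and an IC50 on retest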;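 also: ATPase domain with a fluorescein-tagged ATP probe; 0% = vehicle and 100% = excess ADP; read after one hour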
* hit, by the source's call; i = inactive; . = not tested or not shown.

Molecule | WNV protease inh | MT1-MMP promoter | Hsc70
CCN(CC)CCNC(=O)CCc1n[nH]c(=O)c2ccccc12 | 0.39 | i | -9.7%
CCNS(=O)(=O)c1ccc2nc(NC(=O)c3cccnc3)sc2c1 | -0.18 | i | -3.9%
O=C(O)c1cccc(C(=O)Cc2ccccc2)c1 | -0.22 | i | 1.0%
COCC(=O)Nc1cccc2ccccc12 | -0.42 | i | 4.5%
Cc1ccc(NC(=O)N2CCC(C(=O)NCc3ccc(F)cc3)CC2)cc1 | -0.5 | i | -3.7%
COc1cc(OC)cc(C(=O)Nc2c(F)cccc2F)c1 | . | i | 3.0%
COc1ccccc1N1CCN(Cc2cccs2)CC1 | . | i | 0.7%
CCN(CC(=O)Nc1ccc2c(c1)OCO2)Cc1nc2ccccc2c(=O)[nH]1 | 0.26 | i | 0.0%
COc1ccc(/C(O)=C2/C(=O)C(=O)N(CCN3CCOCC3)C2c2ccccn2)cc1OC (stereo unspecified) | -0.59 | i | -1.4%
CCN(CC)CCNC(=O)C12CC3CC(CC(C3)C1)C2 | . | i | -0.2%
CCCCc1ccc(NC(=S)NCc2cccs2)cc1 | . | i | -4.5%
Cc1ccccc1Nc1nnc(SCc2cc(=O)n3ccsc3n2)s1 | . | i | 1.5%
Cc1ccc(CNC(=O)CCNC(=O)c2ccco2)cc1 | . | i | -3.2%
Cc1ccc(N(CC(=O)Nc2ccc(C)cc2C)S(=O)(=O)N2CCCC2)cc1 | . | i | 5.1%
C=CCc1cccc(CNc2c(C)n(C)n(-c3ccccc3)c2=O)c1O | -0.2 | i | -2.5%
O=C(CC1C(=O)NCCN1C(=S)Nc1ccccc1)Nc1ccc2c(c1)OCCO2 (stereo unspecified) | . | i | 5.4%
O=C(Cn1c(=O)oc2cc(S(=O)(=O)NCc3ccccc3)ccc21)NCc1ccco1 | -0.85 | i | -0.8%
CCc1c(O)nc(N2CCN(Cc3ccccc3)CC2)[nH]c1=O | -0.79 | i | -3.8%
CC(=N\O)/C(CN(C)C)=N/O | -0.21 | i | 6.0%
COCCCN1C(=O)c2ccccc2C1C(=O)NC1CCCCCC1 (stereo unspecified) | 0.87 | i | -0.4%
C=CCOc1ccc(/C(O)=C2\C(=O)C(=O)N(CCCOC)C2c2ccncc2)cc1 (stereo unspecified) | 1.3 | i | 2.8%
COC(=O)Cn1cnc2c(C#N)c3n(c2c1=O)CCCC3 | . | i | -2.2%
Cc1nnc(SCC(=O)N2CCc3ccccc32)n1-c1ccccc1 | 0.06 | i | 3.0%
CC(C)(C)C(=O)N=C1SC2CS(=O)(=O)CC2N1c1ccc2c(c1)OCO2 (stereo unspecified) | -0.04 | i | 0.1%
CN(CC(=O)Nc1ccc(C#N)cc1)Cc1ccc(Cl)c(Cl)c1 | . | i | -6.0%

In the list so far, these contain an NH in an aromatic ring:
Molecule | WNV protease inh | MT1-MMP promoter | Hsc70
CCN(CC)CCNC(=O)CCc1n[nH]c(=O)c2ccccc12 | 0.39 | i | -9.7%
CCN(CC(=O)Nc1ccc2c(c1)OCO2)Cc1nc2ccccc2c(=O)[nH]1 | 0.26 | i | 0.0%
CCc1c(O)nc(N2CCN(Cc3ccccc3)CC2)[nH]c1=O | -0.79 | i | -3.8%

The list continues.
Molecule | WNV protease inh | MT1-MMP promoter | Hsc70
CCOC(=O)c1c(-c2ccc(C)o2)csc1NC(=O)COC(=O)c1cccs1 | -0.8 | i | -3.6%
CC(=O)c1c(C(C)=O)c(C)n(-c2ccc(O)cc2)c1C | . | i | 0.9%
CCC1CCc2sc(C(=O)O)cc2C1 (stereo unspecified) | 0.39 | i | -2.8%
COc1ccc(NC(=O)c2cnc3n(c2=O)CCS3)cc1OC | -0.27 | i | 2.0%
Cc1cc(S(=O)(=O)NCC(c2ccccc2)c2ccccc2)ccc1-n1cnnn1 | . | i | -4.4%
Cn1c(Cc2csc(N)n2)nnc1SCC(=O)NCc1ccccc1 | 0.34 | i | 7.0%
O=C(O)CCCCNS(=O)(=O)c1ccc(Cl)c(C(F)(F)F)c1 | 0.6 | i | 3.6%
Cc1csc2nc(CSc3nncn3-c3ccccc3)c(Br)n12 | 2.1 | i | 0.8%
CCOC(=O)Cc1csc(SCC(=O)Nc2sc3c(c2C(N)=O)CCC3)n1 | -0.81 | i | -3.0%
CCCCN(C)CCCNC(=O)CCn1nc(-c2ccccc2)ccc1=O | -0.17 | i | 2.7%
Cc1ccc(C)c(N2CCN(CCCNC(=O)Cn3cc4c(n3)CCC(C)C4)CC2)c1 (stereo unspecified) | -0.22 | i | 6.8%
O=c1[nH]nc2c3ccccc3cnn12 | 0.84 | i | -3.1%
Cc1ccc(C(=O)N2CCN(C(=O)CN3CCCC3)C2)cc1 | 1.6 | i | -1.2%
O=C(O)CCc1nn2c3ccccc3n(CC(=O)c3ccccc3)c2nc1=O | . | i | -1.6%
CCn1c(NCc2ccco2)nc2c1c(=O)n(C)c(=O)n2C | -0.74 | i | 2.2%
COc1ccc(OC)c(C(c2nnnn2C2CCCC2)N2CCN(c3ccccc3F)CC2)c1 (stereo unspecified) | -0.03 | i | 0.8%
O=C(NCC1CCCO1)C1CCN(S(=O)(=O)N2CCCC2)CC1 (stereo unspecified) | 1.9 | i | 1.5%
CCS(=O)(=O)n1nc(-c2ccc(Cl)cc2)nc1N | -0.04 | i | -1.0%
O=C(NCc1ccco1)C1CCN(c2nnc(-n3cccc3)s2)CC1 | -1 | i | 4.5%
CCCC(=O)Nc1ccc2nc(SCC(=O)Nc3nccs3)sc2c1 | -0.91 | i | 1.5%
CCSC1=C(C#N)C(c2ccc(F)cc2)CC(=O)N1 (stereo unspecified) | -0.56 | i | -0.1%
COc1ccc(Nc2nc3ccccc3n3cnnc23)cc1 | . | i | -0.4%
O=C(COn1nnc2ccc(Cl)cc21)NCc1ccccc1 | 0.98 | i | 1.9%
Cc1cc(C)c(C#N)c(N2CCN(Cc3ccccc3)CC2)n1 | . | i | 3.2%
CCNc1nc(NC(C)CC)nc(Oc2ccc(=O)[nH]n2)n1 (stereo unspecified) | . | i | 4.6%
CC(NC(=O)c1cccc(N2CCCC2=O)c1)c1ccc2c(c1)OCCO2 (stereo unspecified) | -0.39 | i | -0.1%
CCOC(=O)C1(C)/C(=N/Nc2cccc(Cl)c2)C(=O)C(=O)N1c1ccccc1 (stereo unspecified) | . | i | -0.2%
CNC(=O)N(O)C1N(C)C(=O)N(Cc2ccccc2)C1(C)C (stereo unspecified) | -0.71 | i | -5.9%
CCC(C)(C)n1nnnc1CN1CCN(C(c2ccccc2)c2ccccc2)CC1 | . | i | -1.5%
CCOc1ccc(CCNC(=O)C2CCN(c3nn4c(=O)cc(C)nc4s3)CC2)cc1OCC | -1.2 | i | -7.0%
CC12CCC(C(=O)O)(C/C1=N\O)C2(C)C (stereo unspecified) | -1.1 | i | -3.3%
CC(C)OP(=O)(c1ccc(N(C)C)cc1)C(O)c1ccncc1 (stereo unspecified) | -0.8 | i | 3.6%
Cc1cc(=O)[nH]c(SCC(=O)N2c3ccccc3CC2C)n1 (stereo unspecified) | 0.62 | i | 5.5%
O=C1CCC(C(=O)NCCCn2ccnc2)N1 (stereo unspecified) | 0.98 | i | -12%
Cn1c(=O)c(C(=O)c2ccccc2)nc2ccccc21 | 1.4 | i | 0.7%
CCc1c(C)nc(SCC(=O)Nc2cccc(Br)c2)[nH]c1=O | -1.2 | i | -1.7%
N#CC(C(=O)NCc1ccccc1)c1nc2ccccc2nc1N1CCCC1 (stereo unspecified) | -0.58 | i | 52%
CCc1nnc(NC(=O)CSc2nccn2-c2cc(C)cc(C)c2)s1 | -0.2 | i | -3.1%
O=C(O)C1CCCCC1C(=O)Nc1cccc(C(=O)N2CCCCC2)c1 (stereo unspecified) | 0.31 | i | 1.7%
Cc1ccc(S(=O)(=O)Nc2ccc3oc(=O)sc3c2)c(C)c1 | -0.28 | i | 3.2%
Cc1ccc(NC(=O)CN2CCCN(S(=O)(=O)c3ccc(Br)s3)CC2)cc1 | . | i | 3.4%
COc1ccc(Cn2c(=O)[nH]c3cc(C(=O)NCCCN4CCCCC4)ccc3c2=O)cc1 | 0.7 | i | -6.4%
O=C(Nc1ccccc1)c1cc2ccccc2o1 | . | i | -0.2%
CCn1c(COc2ccc3c(c2)OCO3)nnc1SCC(=O)c1ccccc1 | 0.25 | i | -2.2%
COc1ccc(CC(=O)NCc2nnc(SCCOc3ccccc3)n2C)cc1 | 1.6 | i | 7.0%
COc1ccc(NC(=O)c2cc(-c3cccs3)on2)cc1OC | -0.75 | i | -8.7%
c1ccc2c(-n3cnnn3)cccc2c1 | 0.29 | i | -0.5%
Nc1nnnn1/N=C/c1ccc(O)cc1 | . | i | 4.5%
CCN1C(=O)C2(C(C#N)=C(N)Oc3n[nH]c(-c4ccccc4)c32)c2ccccc21 (stereo unspecified) | . | i | 1.6%
CC(=O)c1cc2c(O)c(O)ccc2o1 | 1.2 | i | 3.1%

Entries of single compounds, looked up by structure. Values in the order: WNV protease inh, MT1-MMP promoter, Hsc70
`COCCCN1C(=O)c2ccccc2C1C(=O)NC1CCCCCC1` (stereo unspecified) is listed with 0.87, i, -0.4%
`Cc1ccc(C(=O)N2CCN(C(=O)CN3CCCC3)C2)cc1` is listed with 1.6, i, -1.2%
`COc1cc(OC)cc(C(=O)Nc2c(F)cccc2F)c1` is listed with ., i, 3.0%

(cont.)
Molecule | WNV protease inh | MT1-MMP promoter | Hsc70
Cc1cc(C)c(S(=O)(=O)Nc2ccc[nH]c2=O)c(C)c1 | -0.19 | i | 2.3%
O=C(CC1(O)C(=O)Nc2ccccc21)c1cccnc1 (stereo unspecified) | 0.46 | i | -1.2%
O=C1NC2(CCCCC2)C(=O)N1c1ccccc1 | . | i | 3.6%
COC(=O)c1ccc(COc2ccc3c4c(c(=O)oc3c2)CCC4)o1 | 0.69 | i | 3.4%
CN(C)S(=O)(=O)c1cccc(-c2cn3ccccc3n2)c1 | 0.81 | i | -6.2%
CCC(Sc1nc2ccccc2c(=O)n1CCN1CCOCC1)C(=O)NCc1cccnc1 (stereo unspecified) | 1.8 | i | -6.5%
Cc1ccc(Nc2ccccc2)cc1 | . | i | 4.1%
COc1ccccc1NC(=O)N(CCN1CCCC1)Cc1cc2cc(C)ccc2[nH]c1=O | . | i | 5.2%
Nc1c(C(=O)OCC2CCCO2)c2nc3ccccc3nc2n1C1CCCC1 (stereo unspecified) | 1.9 | i | 4.1%
Cc1cc2c(nn1)CCc1nonc1-2 | -1.1 | i | -2.3%
O=C(CSc1nnc(-c2ccco2)o1)NC(=O)C1COc2ccccc2O1 (stereo unspecified) | 0.5 | i | 0.0%
COC(=O)C1=C(C)Nc2c(c(=O)n(C)c(=O)n2C)C1c1cccs1 (stereo unspecified) | -0.12 | i | -2.6%
CC1(C)CC(=O)C2=C(C1)N=C1SCCC(=O)N1C2c1ccccc1 (stereo unspecified) | 0.06 | i | 4.1%
O=C(Cn1nnc(-c2cc(Cl)ccc2-n2cnnn2)n1)N1CCCc2ccccc21 | 0.41 | i | 6.1%
Cc1cccc(NC(=O)C2CCN(c3nc(C)cc(C)n3)CC2)c1 | -0.97 | i | -0.8%
COC(=O)c1ccccc1NC(=O)c1cc(-c2cccc(OC)c2)on1 | -1.4 | i | -1.0%
O=C(CSc1nc2c(c(=O)n1-c1ccccc1)SCC2)N1CCOCC1 | -0.42 | i | 1.2%
CCCCOC(=O)Cc1c(O)c2ccccc2[nH]c1=O | 1.6 | i | 141%
CC(=O)c1ccc(N2CCN(C(=O)c3cc(-c4ccc5c(c4)OCO5)nc4ccccc34)CC2)cc1 | 1.2 | i | 0.3%
O=C(CCN1C(=O)c2ccccc2C1=O)Nc1cccnc1 | . | i | -2.8%
COc1ccc(OC)c(NC(=O)CS(=O)(=O)c2ccccc2)c1 | 1.7 | i | 10%
O=C(OCC(=O)c1cccs1)c1ccc(NC(=O)c2ccco2)cc1 | -0.37 | i | 0.3%
O=C(NCc1ccc2c(c1)OCO2)C1CC(=O)N(CCc2ccccc2)C1 (stereo unspecified) | -0.61 | i | -2.3%
CCOC(=O)N1CCC(NC(=O)c2cnn3ccccc23)CC1 | 1.4 | i | 1.9%
CCCOc1cccc(C(=O)N(Cc2cccs2)C2CCS(=O)(=O)C2)c1 (stereo unspecified) | -0.2 | i | 4.0%
CCOC(=O)C1CCCN(C(=O)c2cn(C)c(=O)c3cc(OC)c(OC)cc23)C1 (stereo unspecified) | 0.68 | i | -0.9%
CCOC(=O)c1c(C)oc2cc(Br)c(OC)cc12 | -1.3 | i | 2.0%
Cc1nnc(SCC(=O)Nc2ncc(Cc3ccc(F)cc3)s2)n1N | 1 | i | -0.9%
COc1ccc(Nc2nc(N)nc(CN3CCc4ccccc4C3)n2)cc1 | 0.73 | i | -3.2%
CC(=O)c1c(OCC(=O)O)ccc2c(C)cc(=O)oc12 | -0.37 | i | 1.3%
CS(=O)(=O)n1nc(-c2ccc(Cl)cc2)nc1SCc1ccccc1 | . | i | -1.1%
COC(=O)\C(C(C)=O)=C(/C=C/C=C/C=C/N(C)C)N(C)C | . | i | -219%
CSCCC(N=CC1=C(O)CC(C)(C)CC1=O)C(=O)O (stereo unspecified) | 0.45 | i | -3.1%
Nn1c(CSc2ccccn2)nc2ccccc2c1=O | -0.73 | i | -5.4%
